# H5N1 antiviral: antiviral screen in MDCK cells, H5N1 avian flu | cytopathic effect, luminescence, 72 h; active compounds read high; no value below 0 was filed and about half of the inactive calls have no number; reference of the scale not given here | inhibition, % at 50 µM | 0.07% of 96,000 active | AID 740; in the data active = inhibition above about 25%
# Numbers without * were called inactive; i = inactive.
item	molecule	H5N1 antiviral
1	CCOC(=O)N1CCC(NC(=O)Cn2c3c(c(-c4ccccc4Cl)cc2=O)CCC3)CC1	1.1
2	CCOC(=O)c1c(C)[nH]c(C(=O)COC(=O)c2cnc(C)cn2)c1C	0.4
3	Cc1cc(N2CCN(c3ccccc3Cl)CC2)n2cc(-c3ccccc3)nc2n1	12.1
4	CCCCN(C(=O)NC(=O)C1=C(N2CCOCC2)/C(=C/c2ccccc2)CC1)S(C)(=O)=O	0.1
5	COc1ccc(OCc2nc(N)nc(Nc3ccc(C)cc3)n2)cc1	i
6	CCOC(=O)c1[nH]c(=O)[nH]c1COC(=O)c1cc2ccccc2o1	0.6
7	CCN(CC)C(NC(=O)Cc1ccccc1)C(Cl)(Cl)Cl (stereo unspecified)	i
8	COC(=O)c1ccccc1NC(=O)c1cnn2c(C(F)F)cc(C3CC3)nc12	2.1
9	CCOC(=O)c1nnn(-c2nonc2-n2cccc2)c1CN1CCC(C)CC1	11.6
10	CCOc1cc(C(=O)OCC(=O)Nc2cc(C)on2)cc(OCC)c1OCC	2.0
11	S=C(NCCSCc1ccccc1Cl)Nc1ccccc1	i
12	CN1C(=O)c2c(sc3c2CCCC3)NC1c1ccccc1O (stereo unspecified)	i
13	Cc1cc(NC(=O)c2cnn3cccnc23)n(-c2ccccc2)n1	5.6
14	O=C(NCc1ccccn1)c1ccc(Cl)cc1Cl	i
15	CC(=O)N1CCN(C(=O)CCc2c[nH]c3ccccc23)CC1	0.5

# Going on with the list:
item	molecule	H5N1 antiviral
16	CC(C)(C)OC(=O)N1CCOCCOCCN(C(=O)OC(C)(C)C)CCOCC1	1.0
17	CCn1c(COc2ccccc2)nnc1SCC(=O)Nc1cc(OC)ccc1OC	3.3
18	Cn1c(SCC(=O)OCc2ccccc2)nnc1-c1ccco1	i
19	COc1ccc(N2C(=O)CC(Cc3ccccc3)C2=O)cc1 (stereo unspecified)	1.6
20	O=C(O)c1ccccc1C(=O)OCc1ccccc1	i
21	CC(=O)Nc1ccc(S(=O)(=O)Oc2cccc(N3C(=O)C4CCCCC4C3=O)c2)cc1 (stereo unspecified)	0.4
22	CCCCOc1ccc(NC(=O)CN2CCN(C(=O)OCC)CC2)cc1	i
23	Cc1cc(C)cc(-c2nnc(SCC(=O)NCc3cccs3)o2)c1	0.3
24	CCCS(=O)(=O)N1CCCC(C(=O)NCCc2ccc(OC)c(OC)c2)C1 (stereo unspecified)	0.3
25	COc1cccc(-c2nc(CS(=O)CC(=O)NCCCOC(C)C)c(C)o2)c1 (stereo unspecified)	i
26	Cc1cc(-n2c(C)cc(C(=O)CN3C(=O)NC4(CCCCC4C)C3=O)c2C)no1 (stereo unspecified)	i
27	COc1ccc(S(=O)(=O)N2CCC(n3cnc4cc(C(F)(F)F)ccc43)CC2)cc1	7.2
28	CC(C)COC(=O)Nc1ccc(C(=O)O)cc1	i
29	COc1ccccc1N1CCN(CCc2n[nH]c(=S)n2-c2ccccc2)CC1	i
30	CC(Cc1ccccc1)[n+]1cc(/N=C(\N)[O-])on1 (stereo unspecified)	0.1

# Later entries
item	molecule	H5N1 antiviral
31	COc1ccc(C)cc1C(=O)C1CC(C(=O)O)C(C)(C)C1C (stereo unspecified)	i
32	CSc1nnnn1CCn1nnnc1SC	0.3
33	O=C(Nc1cccc(Cl)c1)C1CCCN(S(=O)(=O)c2cnc[nH]2)C1 (stereo unspecified)	i
34	CCOc1ccc(NCCC(=O)c2ccc3c(c2)OCO3)cc1	i
35	Cc1cc(C)c(S(C)(=O)=O)c(S(=O)c2ccc(Cl)cc2)n1 (stereo unspecified)	i
36	O=C(O)C(O)(c1ccccc1)C1CCCC1 (stereo unspecified)	i
37	COC(=O)C(C)Sc1nnc(Cc2cc(=O)[nH]c(=O)[nH]2)n1-c1ccc(Cl)cc1 (stereo unspecified)	0.8
38	O=C(O)CN(c1ccccc1F)S(=O)(=O)c1ccccc1	i
39	c1ccc2c(c1)[nH]c1c(N3CCSCC3)ncnc12	8.7
40	Cc1cccc(C)c1Oc1nc(-c2ccccc2)ncc1S(=O)(=O)c1ccccc1	4.6
41	CCCCCC(=O)NC(=S)Nc1ccc(N2CCCCC2)c(Cl)c1	3.4
42	COc1ccc(NC(=O)c2ccco2)cc1N	i
43	CCOC(=O)Cc1csc(NC(=O)COc2ccc(OC)cc2)n1	0.6
44	COc1cccc(NC(=O)C2CCN(S(=O)(=O)c3ccc4c(c3)OCCO4)CC2)c1	i
45	Cc1ccc(N(C(=O)c2ccc3c(c2)OCO3)C2C=CS(=O)(=O)C2)cc1 (stereo unspecified)	0.2

# Next part
item	molecule	H5N1 antiviral
46	Brc1ccc(-c2nnc3c4ccccc4nc(N4CCOCC4)n23)cc1	0.8
47	CCc1nc(SCC(=O)Nc2cc(C)on2)c2c(C)c(C)sc2n1	i
48	Cc1ccccc1-n1nnnc1-c1ccccc1	0.9
49	COc1ccc(-c2c(-c3ccc(O)cc3O)n[nH]c2C)cc1OC	i
50	CCOc1ccc(N/C=C/C(=O)c2ccc(OC)cc2)c([N+](=O)[O-])c1	i
51	CCCNc1[nH]c(=O)n(C)c(=O)c1N=O	i
52	CCC1(C)Cc2ccccc2-c2nc(NCCO)[nH]c(=O)c21 (stereo unspecified)	i
53	COc1ccc(Nc2oc(-c3cccs3)nc2C#N)cc1	i
54	N/C(=N\c1nc2c(c(=O)[nH]1)CCC2)Nc1ccccc1C(F)(F)F	i
55	Nc1nc(SCC(=O)NC2CCCCC2)[nH]c(=O)c1-c1ccccc1	i
56	Cc1ccc(-c2nnn(CC(=O)N(c3cccc(F)c3)C(C(=O)NC3CCCC3)c3ccco3)n2)o1 (stereo unspecified)	1.1
57	CCOc1ccc(CCNC(=O)C2CCCN(c3nn4c(=O)cc(C)nc4s3)C2)cc1OCC (stereo unspecified)	0.9
58	CCC1CCCCN1c1nc(-c2cccc(OC)c2O)nc2ccccc12 (stereo unspecified)	4.8
59	COc1ccc2cc(C(c3nnnn3Cc3ccc(F)cc3)N3CCCCCC3)c(=O)[nH]c2c1 (stereo unspecified)	i
60	Cc1cc(OCC(=O)Nc2ccc(S(=O)(=O)N3CCN(C)CC3)cc2)cc(C)c1Cl	i

# (next part)
item	molecule	H5N1 antiviral
61	C/C(=N\NC(=O)Cc1ccccc1)c1cccs1	1.2
62	Nc1[nH]c(=S)[nH]c(=O)c1-c1ccccc1	0.0
63	COc1cccc(-c2nnc(NC(=O)c3ccc(S(=O)(=O)N4CCOCC4)cc3)o2)c1	3.4
64	Cc1ccc(C=Nc2ccc(N(C)C)cc2)o1	0.3
65	Cc1oc(-c2ccccc2F)nc1CS(=O)(=O)CC(=O)N1CCOCC1	1.2
66	Cc1ccccc1N1C(=O)N(c2cccc(C(F)(F)F)c2)C2CS(=O)(=O)CC21 (stereo unspecified)	i
67	CCOc1ccc(N(CC(=O)NC(C)(C)C)S(=O)(=O)c2c(C)noc2C)cc1	i
68	O=C(CCSc1ccccc1)NCCN1CCOCC1	i
69	O=C(N/N=C\c1ccc(F)cc1)c1cc(OCC(F)(F)F)ccc1OCC(F)(F)F	i
70	Cc1ccc(OC(=O)c2cccc(C(=O)Oc3ccc(C)cn3)n2)nc1	i
71	O=C(Nc1ccc(F)cc1)N1CCN2C(=O)c3ccccc3C12c1ccccc1 (stereo unspecified)	0.6
72	COc1cccc(-c2cc(C(=O)NCc3ccco3)no2)c1	i
73	CC1=C(OC(=O)c2ccccc2)C(C)(C)C(c2ccccc2)OC1=O (stereo unspecified)	i
74	CCn1c(=O)c(C(=O)NCc2ccccn2)c(O)c2ccccc21	i
75	CCOc1ccc(CC(=O)Nc2c(C(N)=O)oc3ccccc23)cc1OCC	1.0

# Later entries
item	molecule	H5N1 antiviral
76	O=C(Nc1cccc(C(F)(F)F)c1)c1cccnc1N1CCCC1	i
77	CC(C)COc1ccc(-c2nn(-c3ccccc3)cc2C(=O)Nc2nccs2)cc1	i
78	Cc1nnc(C)n1/N=C/c1ccccn1	i
79	COc1ccc2[nH]c(=O)c(CN(Cc3cccs3)S(=O)(=O)c3c(C)ccc4nsnc34)cc2c1	i
80	COc1ccc(-n2c(COc3ccccc3)nnc2SCc2ccc(C#N)cc2)cc1	0.1
81	O=S(=O)(c1cccs1)N1CN(CC2CCCO2)c2nc3ccccc3nc21 (stereo unspecified)	i
82	Cc1ccc(C)c(/C(O)=C2\C(=O)C(=O)N(Cc3cccnc3)C2c2cccnc2)c1 (stereo unspecified)	2.2
83	O=C(Nc1cnn(Cc2ccccc2)c1)NC12CC3CC(CC(C3)C1)C2	4.9
84	NS(=O)(=O)c1ccc(CCNC(=O)CCCC2=NS(=O)(=O)c3ccccc3N2)cc1	0.2
85	CCN(CC)c1nc(OC)nc(-n2nnc(C(C)=O)c2C)n1	2.5
86	CC(=O)N(CC1CCCO1)c1nnc(-c2cnccn2)s1 (stereo unspecified)	i
87	O=C(c1ccccc1)N1CCN(C(=O)c2ccc(OC(F)(F)F)cc2)CC1	0.9
88	O=C(CSc1nc(-c2ccco2)cc(C(F)(F)F)n1)Nc1ccc(C(=O)N2CCCCC2)cc1	i
89	CC(NCC(O)COCc1cccs1)C1CC2CCC1C2 (stereo unspecified)	i
90	CS(=O)(=O)c1nc(-c2ccccc2)cc(-c2ccccc2)c1C#N	1.8

# Other records
item	molecule	H5N1 antiviral
91	Cc1cc(NC(=O)c2ccc3c(c2)C(=O)N(CCC(C)C)C3=O)no1	1.5
92	CCOC(=O)C1CCN(c2cc(=O)n(-c3ccc(OC)cc3)c(=O)[nH]2)CC1	2.0
93	CN(C)S(=O)(=O)c1cccc(C(=O)N(Cc2ccc(F)cc2)Cc2ccco2)c1	0.2
94	Cc1cccc(N2C(=O)C3C4CC(C(Br)C4Br)C3C2=O)n1 (stereo unspecified)	0.3
95	CCOC(=O)/C(N=Nc1ccc(F)cc1)=C(/O)c1ccc([N+](=O)[O-])cc1	i
96	CCOC(=O)c1cc(CC)sc1NC(=O)C(c1ccccc1)c1ccccc1	i
97	N/C(=N\OC(=O)CCC1CCCCC1)c1cccc([N+](=O)[O-])c1	i
98	COc1ccc(CNC(=O)Nc2cccs2)cc1OC	1.9
99	O=C(NN1CCOCC1)c1cc(-c2ccccc2)nc2ccccc12	0.2
100	COc1cccc(CNc2ncnc3cc(OC)c(OC)cc23)c1	0.6
101	Cc1cccc2[nH]c3c(N4CCN(C(=O)c5ccco5)CC4)ncnc3c12	i
102	ONC=Nc1cccc2nonc12	i
103	O=C(NCC(=O)N(Cc1ccco1)C(C(=O)NC1CCCCC1)c1cccnc1)c1cccs1 (stereo unspecified)	0.3
104	CCCOc1ccc(Cc2nc(N)nc(N)n2)cc1	0.7
105	CCn1c(SCC(=O)Nc2ccc(OC)c(OC)c2)nnc1-c1c[nH]c2ccccc12	i

# 3 entries from above, with each value named:
98: COc1ccc(CNC(=O)Nc2cccs2)cc1OC
  H5N1 antiviral: 1.9
96: CCOC(=O)c1cc(CC)sc1NC(=O)C(c1ccccc1)c1ccccc1
  H5N1 antiviral: i
99: O=C(NN1CCOCC1)c1cc(-c2ccccc2)nc2ccccc12
  H5N1 antiviral: 0.2

# Of the compounds above, two contain bromine:
item	molecule	H5N1 antiviral
46	Brc1ccc(-c2nnc3c4ccccc4nc(N4CCOCC4)n23)cc1	0.8
94	Cc1cccc(N2C(=O)C3C4CC(C(Br)C4Br)C3C2=O)n1 (stereo unspecified)	0.3

# The results go on.
item	molecule	H5N1 antiviral
106	CCCN(N=Nc1cccc([N+](=O)[O-])c1)c1cccc([N+](=O)[O-])c1	i
107	CCn1c(CNC(=O)c2ccc(OC)cc2)nnc1SC	1.0
108	O=C(Nc1ccon1)C(Sc1ccccc1)c1ccccc1 (stereo unspecified)	0.6
109	COc1ccc(OCCCON2C(=O)c3ccccc3C2=O)cc1	i
110	CNC(=O)COC(=O)c1cc(NC(=O)c2ccco2)c(OC)c(OC)c1	1.2
111	O=C(O)CSc1ncnc2nc[nH]c12	i
112	O=C(NCc1ccc(Cl)cc1)c1cc2c(nc3sccn32)s1	i
113	O=C(CN1CCN(c2ccccc2)CC1)Nc1nccs1	1.0
114	Nc1ncnc2c1ncn2C1CCC(CO)C(O)C1 (stereo unspecified)	1.9
115	COc1cccc(-c2nnc(NC(=O)C3CCCCC3)o2)c1	i
116	COc1ccc(NS(=O)(=O)c2ccc(OC)c(OC)c2)cc1OC	i
117	COc1ccc(Cl)cc1NC(=O)C1CC(=O)N(c2ccc(F)cc2)C1 (stereo unspecified)	i
118	Clc1ccc(-c2nc3ncccn3c2Nc2ccc3c(c2)OCO3)cc1	i
119	Oc1ccc(CNc2ccc(F)cc2)c2cccnc12	i
120	Clc1ccccc1Nc1ncnc2c1nnn2Cc1ccccc1	i

# Next section, overlapping the part above by three compounds.
item	molecule	H5N1 antiviral
118	Clc1ccc(-c2nc3ncccn3c2Nc2ccc3c(c2)OCO3)cc1	i
119	Oc1ccc(CNc2ccc(F)cc2)c2cccnc12	i
120	Clc1ccccc1Nc1ncnc2c1nnn2Cc1ccccc1	i
121	N#Cc1c(NC(=O)CSc2nnc(-c3ccco3)n2-c2ccccc2)sc2c1CCC2	1.6
122	Cc1nnc2c(Oc3ccccc3)nc3ccccc3n12	1.0
123	O=C(CCn1c(=O)c2ccccc2n(CC(=O)NC2CCCC2)c1=O)NCc1ccco1	i
124	Cc1nc2ccccc2c(=O)[nH]1	i
125	COc1ccc(C(=O)C(OC(=O)CNC(=O)c2ccco2)c2ccccc2)cc1 (stereo unspecified)	i
126	NC(=O)c1nsc(C(=O)N(CC(=O)NCc2ccc3c(c2)OCO3)C2CCCCC2)c1N	i
127	CCOC(=O)C(NC(C)=O)(Nc1ccc(S(=O)(=O)Nc2cc(C)nc(C)n2)cc1)C(F)(F)F (stereo unspecified)	i
128	COc1ccc(NC(=O)C2OC3OC(C)(C)OC3C3OC(C)(C)OC23)cc1 (stereo unspecified)	1.3
129	Cc1cc(C)n2c3c(c(C#N)c2n1)CC(C)(C)OC3	0.2
130	COC(=O)CSc1nnc(-c2ccco2)n1-c1ccc(C)cc1	0.4
131	CCOC(=O)Cc1csc(SCC(=O)N2CCN(c3ccc(OC)cc3)CC2)n1	i
132	Cc1nc2c(c(=O)n1CCC1=CCCCC1)c1nc3ccccc3nc1n2/N=C/c1ccccc1	1.1

# Not all compounds are listed; count on the stated rates, not on these rows.
